gsp ag: activates gsp, the McCune-Albright syndrome mutation; gsp mutant cells, cAMP HTRF, 30 min; control for the full effect not named in the record; AID 624287; actives 0.13% (n = 340,000); Potency, µM (highest dose often 76.9 µM), inactives show at the highest dose activation (cAMP increase), hits mostly activators; active = well fitted activation curve with a large enough effect; inconclusive = small, poorly fitted or top-dose-only effect, or another doubt; inactive = no such curve, though single readings can be large or run the other way; cell line not stated here;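 note: phosphodiesterase inhibitor Ro 20-1724 added with compounds to block cAMP breakdown; potency is the fitted concentration of half-maximal effect; nearly all actives have a fitted effect of over 60% in size; about a fifth of the inactives were tested at one dose only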
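Cells in DMEM/10% FBS with G418 were pretreated with compounds in DMSO plus […] (300 uM stock) for 30 min at 37C. cAMP was measured by HTRF (cAMP-d2 plus anti-cAMP antibody-K) after 30 min at room temperature.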
Sfp PPTase inh: Sfp phosphopantetheinyl transferase inhibition; Biochemical Sfp PPTase activity, qHTS; Q9F4F7; Potency, µM, for inactives: max response, negative = inhibition, most hits filed as inhibitors; actives 3.5% (n = 310,000); active = well fitted inhibition curve with a large enough effect; inconclusive = small, poorly fitted or top-dose-only effect, or another doubt; inactive = no such curve, though single readings can be large or run the other way;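 note: the enzyme is Sfp with the accession as filed and its product quenches rhodamine fluorescence; potency is the fitted concentration of half-maximal effect; 0% = enzyme reaction without inhibitor and -100% = no enzyme wells; top concentration of the series not given in the record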
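Compounds were incubated with enzyme (final 15 nM) for 15 min at room temperature before substrate addition started the reaction. Fluorescence at 525 nm excitation, 598 nm emission was recorded immediately and after 30 minutes.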
Menin-MLL FL inh: displaces fluorescein MLL peptide from human menin | Fluorescence polarization, fluorescein-MLL peptide displacement from menin | FP activity change, % at 61.4 µM | 290,000 tested, under 10 active; inconclusive = falling polarisation curve, or a change in total fluorescence; inactive = total fluorescence flat and polarisation flat or rising; no compound was filed as active; the % refers to the polarisation; negative = inhibition;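 note: % of control where 0% means no effect; inhibitors lower the polarisation; unlabelled MLL peptide was the positive control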
TRPML1 inh: inhibitors of human TRPML1 channel; Q9GZU1; TRPML1-inducible cells, Ca2+ dye fluorescence, FDSS; hits give low values; inhibition of EC80 agonist-evoked calcium signal; activity change, negative = inhibition, % (test concentration not listed); AID 624415; actives 0.02% (n = 390,000); in the data active means activity change below about -50%; inconclusive means about -30% to -50%; inactive means above about -30%;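 note: stimulus is agonist 54-4 at its EC80 concentration; % is set by controls: 0 for no effect and ±100 for the full control effect; compound concentration not given in the record; the text of the record puts the active cut at -80%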
Target sequence (Q9GZU1 whole entry, looked up): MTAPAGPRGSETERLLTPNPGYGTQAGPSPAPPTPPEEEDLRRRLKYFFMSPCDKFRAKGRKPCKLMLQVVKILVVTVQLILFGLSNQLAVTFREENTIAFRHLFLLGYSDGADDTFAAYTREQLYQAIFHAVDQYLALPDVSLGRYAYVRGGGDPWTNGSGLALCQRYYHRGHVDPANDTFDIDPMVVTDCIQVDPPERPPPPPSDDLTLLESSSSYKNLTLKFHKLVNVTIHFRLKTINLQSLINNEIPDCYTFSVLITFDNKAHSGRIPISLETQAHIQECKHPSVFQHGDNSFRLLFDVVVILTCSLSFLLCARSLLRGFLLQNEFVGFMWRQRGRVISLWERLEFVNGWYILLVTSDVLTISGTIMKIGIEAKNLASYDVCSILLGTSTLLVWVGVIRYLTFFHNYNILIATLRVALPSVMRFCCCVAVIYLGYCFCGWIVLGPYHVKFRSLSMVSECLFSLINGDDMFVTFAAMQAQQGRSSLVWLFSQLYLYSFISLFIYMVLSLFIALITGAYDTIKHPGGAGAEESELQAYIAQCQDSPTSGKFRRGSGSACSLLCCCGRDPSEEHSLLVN
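Tet-induced TRPML1-DL cells loaded with Ca8 no-wash calcium dye were read kinetically on FDSS. Compound addition was followed by EC80 agonist 54-4 (4 uM final); inhibition was read over 110 s.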
TRPV1 PAM: human TRPV1 potentiation | Q8NER1 | TRPV1-expressing cells, Fluo-8 calcium influx, capsaicin EC20 potentiation; host cell line not named in the record; control for the full effect not named in the record | potentiation, % at 8.33 µM | actives 0.02% (n = 320,000) | AID 540277; active means potentiation above 80%; inconclusive means 30% to 80%; inactive means below 30%; note: 0% is about no effect
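TRPV1-expressing cells were cultured overnight at 35.5C and loaded with Fluo-8 calcium dye for 40 to 90 min at room temperature. After a 10 s baseline, compound was added and calcium influx was read kinetically for 3 min (ex 480/em 520 nm).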
ClpP mod: qHTS Assay for Activators of ClpP. purified B. subtilis ClpP, FRET peptide cleavage, 20 min. AID 651965, 2013. actives 1.9% (n = 340,000). Potency, µM (doses to about 57.5 µM), inactives show at the top dose activity change, negative = active; active = well fitted falling curve with a large enough effect; inconclusive = small, poorly fitted or top-dose-only effect; inactive = no such curve, though single readings can be large or run the other way; note: potency is the fitted concentration of half-maximal effect; the source files actives as falling curves though it sought activators and does not explain the sign; nearly all actives have a fitted effect of over 65% in size; many hits overshoot -100%
Target sequence (P80244 whole entry, looked up): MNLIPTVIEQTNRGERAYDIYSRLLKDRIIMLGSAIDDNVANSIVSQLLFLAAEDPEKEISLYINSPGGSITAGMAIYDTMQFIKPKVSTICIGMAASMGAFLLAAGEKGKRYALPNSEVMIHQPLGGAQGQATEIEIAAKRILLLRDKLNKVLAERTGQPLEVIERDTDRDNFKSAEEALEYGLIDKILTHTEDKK
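Purified B. subtilis ClpP, 10 microg/mL final in Tris/HCl pH8 with KCl, BSA, glycerol and Tween-20, cleaved an Abz/nitrotyrosine-quenched decapeptide. Fluorescence (ex 320, em 430) was read at 0 and 20 min at room temperature. Delta was normalized to 5.8 microM ADEP and DMSO/no-enzyme controls.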
gsp antagonist: antagonizes gsp, the McCune-Albright syndrome mutation. AID 624288. gsp-mutant cells, cAMP HTRF, 30 min; control for the full effect not named in the record. actives 0.4% (n = 340,000). Potency, µM (titrated, usually from 76.9 µM), without a hit: at the top dose activity change, negative = inhibition, hits mostly inhibitors; active = falling curve of any shape with a large fitted effect; inconclusive = falling curve, mostly with a smaller effect; inactive = flat or rising curve; cell line not stated here;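 note: intracellular cAMP measured with PDE inhibitor Ro 20-1724 present during compound exposure; potency is the fitted concentration of half-maximal effect; % is set by controls: 0 for no effect and ±100 for the full control effect; nearly all actives have a fitted effect of over 65% in size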
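HTRF cAMP read-out (cAMP-d2 plus anti-cAMP antibody-K in lysis buffer, 30 min RT). Before lysis, cells are exposed to compounds with […] for 30 min at 37C in DPBS containing Ca/Mg, BSA and Tween 20.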
* hit, by the source's call; ? = inconclusive; . = no result given; [ ] = dose if it differs, or a comment.

SMILES	gsp ag	Sfp PPTase inh	Menin-MLL FL inh	TRPML1 inh	TRPV1 PAM	ClpP mod	gsp antagonist
O=C(C1CCCO1)N1CCN(C(=O)C23CC4CC(CC(C4)C2)C3)CC1 (stereo not drawn)	?	.	.	-4	.	1.6%	.
CC(CC(c1ccccc1)N1CCc2ccccc2C1)=NO (stereo not drawn)	-84%	.	.	-6	.	0.3%	.
Cc1ccc(C(=O)Nc2ccc(N3CCN(C(=O)c4ccco4)CC3)cc2)cc1	-12%[15.4 µM]	5%	5.4	36	-9	.	-6%
Cc1csc(NC(=O)/C=C/c2ccc(C)o2)n1	19%	?	4.3	-3	-17	2.1%	10%
O=S(=O)(NC1CC1)c1ccc(Cl)cc1	-12%	11%	-0.6	-17	0	.	6%
NC(=O)Cn1nc([N+](=O)[O-])nc1Oc1ccccc1F	3%[15.4 µM]	20%	-5.7	6	8	0.5%	10%
CCN(CCn1cccn1)C(=O)c1cccc(OC2CCN(S(C)(=O)=O)CC2)c1	-50%[inhibitor]	18%	.	14	17	1.2%	11%
CCN(CC)C(=O)Cn1c(=O)n(-c2ccccc2)c(=O)c2sccc21	0%	-10%	-0.5	-1	-24	-3.3%	-8%
Cc1ccc(C)c(/C=N/Nc2nc3ccccc3c(=O)n2O)c1	6%[15.4 µM]	25µM*	0.8	13	3	-1.1%	-7%
CNC(=S)NNC(=O)COc1ccc(C)c(C)c1	1%[15.4 µM]	5%	7.2	4	29	-3.0%	5%
Cc1ccccc1-n1c(SCc2cccc(F)c2)nc2[nH]ncc2c1=O	9%	3%	-0.7	17	-6	-1.2%	22%
O=C(NCCC1=CCCCC1)c1c(O)nc2ccccn2c1=O	-12%	19%	1.8	3	2	-25%	3%
COc1ccc(S(=O)(=O)N2CCOCC2)cc1NC(=O)COc1ccc(C)cc1	0%	.	.	-18	.	-4.1%	8%
Nc1c(Cl)cc2c(c1Br)Cc1ccccc1-2	3%	.	.	9	.	.	4%
C=CCC1(CC=C)CCCN1C(=O)C1CCC(=O)N(CCc2ccc(OC)cc2)C1 (stereo not drawn)	2%	-4%	2.1	3	-9	-2.1%	16%
Cc1cc(C)cc(NC(=S)NCc2cccn2C)c1	?	17%	3.2	-11	10	-0.3%	9%
CS(=O)(=O)c1cccc(C(=O)Oc2ccccc2)c1	7%	16%	-1.4	-24	3	-7.6%	-9%
CN(C(=O)c1cccc(NC(=O)Cc2ccc(NC(=O)C3CCN(C(=O)C4CC4)CC3)cc2)c1)C1CCC1	.	.	.	-2	.	2.3%	-4%
COC(=O)[C@H](CCSC)NC(=O)Cn1ccc(N)nc1=O	-31%[inhibitor]	.	.	?	-5	0.7%	6%
CC(=O)NS(=O)(=O)c1ccc(NC(=O)c2ccc3c(c2)C(=O)N(CCC(C)C)C3=O)cc1	2%	-1%	4.6	4	-7	-0.6%	9%
CCN1CCN(C(=O)NC2CCCCC2)CC1	14%	-18%	1.5	20	0	-2.3%	4%
O=C(CCc1nc2ccccc2s1)NC1CCOC1=O (stereo not drawn)	-48%[inhibitor]	12%	-22	.	-2	1.0%	15%
Cc1ccc(C(=O)NNC(=O)c2ccc(S(=O)(=O)N(C)c3ccccc3)cc2)cc1	-2%	.	.	0	3	-1.6%	-8%
CC1CN(CC(=O)N2CCc3[nH]c4ccccc4c3C2)CC(C)O1 (stereo not drawn)	-6%	21%	?	20	-4	-5.2%	3%
Cc1cc(NC(=O)CSc2nc3ccsc3c(=O)n2CCCC(=O)NCCc2ccccc2)no1	-9%[15.4 µM]	20%	-0.3	-26	26	.	10%

New compounds follow.
SMILES	gsp ag	Sfp PPTase inh	Menin-MLL FL inh	TRPML1 inh	TRPV1 PAM	ClpP mod	gsp antagonist
O=C(Oc1ccc(-c2nnco2)cc1)N(c1ccccc1)c1ccccc1	-1%	-1%	3.0	-3	0	-2.7%	-9%
CN(C(=O)c1cc2c(=O)n3ccccc3nc2s1)C1CCCCC1	?	.	.	-6	.	3.2µM*	-7%
CNCc1c(OCc2ccccc2)ccc2ccccc12	-45%	-10%	-3.9	-8	2	.	16%
Cc1ccc(-c2cc(NC(=O)CCl)n(-c3ccccc3)n2)cc1	-17%	13%	2.5	-5	22	-2.5%	5%
CC(=O)N1c2ccccc2Oc2cc3ccccc3cc21	-2%[15.4 µM]	-19%	0.2	27	0	-0.6%	-6%
COCCCN(C(=S)Nc1cc(Cl)cc(Cl)c1)C(C)c1ccccn1 (stereo not drawn)	-9%	25µM*	-1.1	6	11	.	?
Cc1nc(-c2ccccc2)cc(=O)[nH]1	?	2%	0.1	14	1	-0.3%	6%
Cc1cccc(NCCNc2cccc(C)c2)c1	-23%	-2%	1.1	-6	1	1.5%	-3%
CCOC(=O)N1CCN(C(=O)C2CCN(C(=O)c3ccccc3C)CC2)CC1	-7%[15.4 µM]	.	.	11	.	.	3%
CC(OC(=O)c1c(F)cccc1F)C(=O)NCCC1=CCCCC1 (stereo not drawn)	3%	.	.	-8	.	.	3%
N#CCCN(C(=O)COC(=O)CCC(=O)c1ccc(F)cc1)c1ccccc1	6%	.	.	-6	3	-1.9%	-10%
Cc1ccc(-c2nnn(CC(=O)N(CC(=O)NC3CCCC3)c3cnc4ccccc4c3)n2)o1	-7%	10%	7.7	-11	-7	-0.2%	-10%
CCN1CCN(c2nc(Nc3cccc(C)c3)nc(N)c2[N+](=O)[O-])CC1	15%[15.4 µM]	19%	.	1	14	-2.0%	11%
COc1ccc(NC(=O)c2cn3c(nc4ccccc43)c(C#N)c2C)cc1	?	15%	5.6	10	8	-6.5%	-4%
C/C(=C(\C#N)C(=O)NCCCN1CCOCC1)N(C)C	-15%	6%	0.7	21	-11	-0.5%	4%
O=C(Cc1c(F)cccc1Cl)NNC(=O)Nc1ccc2c(c1)OCO2	-7%[15.4 µM]	11%	1.0	-6	2	1.9%	9%
CCOC(=O)Cn1cnc2scc(-c3ccccc3)c2c1=O	-3%[15.4 µM]	7%	-1.6	-14	?	0.2%	6%
CCn1ncc(S(=O)(=O)N2CCN(c3cccc(OC)c3)CC2)c1C	4%	7%	-0.2	17	-3	0.2%	2%
COCCSc1nnc(NC(=O)C(C)(C)C)s1	25%	15%	2.7	17	27	0.6%	5%
CCOc1ccc(N=C2SC(C(=O)Nc3ccccc3C#N)C(N)=C2C(=O)Nc2ccc(Cl)cc2)cc1 (stereo not drawn)	12%	-18%	1.4	-13	5	-3.2%	-5%
COc1ccc(CCN=CC2=C(O)CC(C)(C)CC2=O)cc1	16%	17%	-9.7	-8	6	-2.4%	10%
COc1ccc(/C=N/N2C(=O)CSC2=S)cc1	0%	-13%	17	-9	15	-0.8%	5%
CSc1ncccc1C(=O)OCC(=O)c1ccccc1Br	-4%[15.4 µM]	1%	0.3	53	2	.	-23%
COc1ccc(CCNC(=O)COC(=O)/C=C/c2ccc(OCC#N)c(OC)c2)cc1OC	10%	13%	2.5	2	-2	?	-6%
CC(=O)CC(=O)Nc1ccc(Nc2ccccc2)cc1	-28%	-7%	1.7	18	5	-1.1%	8%

More entries.
SMILES	gsp ag	Sfp PPTase inh	Menin-MLL FL inh	TRPML1 inh	TRPV1 PAM	ClpP mod	gsp antagonist
CC1Cc2ccccc2N1C(=O)CSc1nc2c(c(=O)n(C)c(=O)n2C)n1Cc1ccc(F)cc1 (stereo not drawn)	-30%	.	.	2	.	-1.3%	20%
CCC(Oc1ccc(C)cc1)C(=O)Nc1ccc2c(c1)n(C)c(=O)n2C (stereo not drawn)	4%[15.4 µM]	8%	-0.3	18	11	-14%	-19%
Cc1ccc(C2CC(=O)C=C(NCC(C)C)C2)cc1 (stereo not drawn)	3%	14%	1.6	64	-9	0.5%	0%
CC(=O)c1cccc(S(=O)(=O)Nc2cccnc2)c1	-12%[15.4 µM]	11%	-1.4	-11	1	.	3%
CCOC(=O)Cc1csc(NS(=O)(=O)Cc2ccccc2)n1	21%	12%	2.5	2	3	0.9%	11%
CC(=O)c1oc2ccccc2c1NC(=O)CCCN1C(=O)c2ccccc2C1=O	-48%[inhibitor]	13%	-0.3	1	12	0.7%	7%
CCOC(=O)c1sc2nc(C)nc(SCC(=O)N(CC)C3CCS(=O)(=O)C3)c2c1C (stereo not drawn)	?	19%	5.8	2	0	-13%	-16%
CNC(=S)NNC(=O)c1cccc(C(F)(F)F)c1	13%	-3%	1.4	19	7	2.5%	10%
O=C1C2C3C=CC(C3)C2C(=O)N1CCC(=O)N1CCc2ccccc21 (stereo not drawn)	-12%	14%	4.0	18	?	-0.4%	-7%
CCOCCCN1C(=O)CN(C2CCC(C)CC2)C(=O)C1c1ccc(C)cc1 (stereo not drawn)	-19%[15.4 µM]	1%	-1.6	-9	-8	.	12%
COc1ccc(OC)c(-n2nnnc2SCC(=O)Nc2ccc3c(c2)OCCO3)c1	11µM*	5%	4.5	16	-1	-4.8%	15%
Cc1cccc(C(=O)OCC(=O)NCCCc2ccccc2)c1O	26%	10%	17	18	-10	4.1%	3%

Bioassay records as filed in PubChem BioAssay.
